MgrA DNA FP = S. aureus MgrA activity modulators, primary screen, biochemical, S. aureus Newman, fluorescence polarization; actives 0.13% (n = 84,000); MgrA-DNA binding; inhibition, %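 (about 10 µg/mL by stock and volumes)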; AID 602314, 2012;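 active = above 50% in either of two replicates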;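 also: 0% = protein plus DNA without compound and 100% = DNA alone without protein; higher means less MgrA bound to DNA so lower polarization; one replicate is shown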
S aureus helic = inhibitors of S. aureus replicative helicase, primary screen, biochemical, fluorescence unwinding readout | replicative DNA helicase (DnaC/DnaB), Staphylococcus aureus | purified S. aureus helicase, fluorescence unwinding assay; about half of the hits fall short of the stated cut | inhibition, %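 (tested at about 80 µM)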 | actives 0.05% (n = 120,000);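 active = both duplicates at 50% or more, or one of them with a favoured structure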;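 also: 0% = mean of negative control wells and 100% = mean of positive control wells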
* marks the source's active call; other numbers are inactive results; . = not tested or not shown; & = joins results of further samples.

MgrA DNA FP | S aureus helic | molecule
4.8 | 2 | Cc1cc(C(=O)N2CCCC2C(=O)O)c(C)o1 (stereo not drawn)
-2.0 | . | COc1ccc2nc(NC(=O)CSc3nc4ccc(C)cc4[nH]3)sc2c1
. | -9 | N=C1C(c2nc3ccccc3s2)=C(O)CN1/N=C1\C(=O)Nc2ccccc21
-0.7 | . | O=c1c2ccccc2n(Cc2ccc(Cl)cc2)c(=O)n1Cc1ccc(Cl)cc1
-1.2 | -1 | COc1ccc2nc3c(nc2c1)-c1cccc2cccc-3c12
. | 27 | CC1Cn2cc(C(=O)N3CCCc4ccccc43)c(=O)c3c(Cl)ccc(c32)O1 (stereo not drawn)
1.9 | -6 | CC(C)C(=O)Nc1ccccc1-c1nc2ccccc2[nH]c1=O
. | 5 | CNC(=O)c1ccc2nc(N3CCC(C)CC3)sc2c1
2.1 | . | Cc1onc(-c2c(Cl)cccc2Cl)c1C(=O)NNc1c(Cl)cncc1Cl
. | 4 | c1ccc2c(c1)CCN2c1nn2nnnc2c2ccccc12
-0.1 | . | Cc1ccc(S(=O)(=O)NC(=O)N2CCOCC2)cc1
. | 10 | CCCc1cc(=O)oc2cc(OC(C)=O)ccc12
3.2 | -18 | CC(C)C(=O)NCCN1CCOCC1
. | 13 | Cc1cc2c(cc1C)NC(CC(N)=O)C(=O)N2 (stereo not drawn)
. | -27 | CN1CCN(Cc2c(O)ccc3c(=O)c(Oc4ccccc4Cl)c(C(F)(F)F)oc23)CC1
-0.4 | . | COc1c(Br)cc([N+](=O)[O-])cc1Br
. | -5 | CC1CN/C(=C/C(=O)c2ccc(Br)cc2)C(=O)N1 (stereo not drawn)
. | 10 | C/C(N)=C(/C#N)C(=O)Cn1ncc(Cl)c(Cl)c1=O
. | 1 | CC1CN(C(=O)c2cc(-c3ccccc3)nc3ccccc23)CC(C)O1 (stereo not drawn)
. | 4 | O=c1[nH]c2ccc(Cl)cc2c(-c2ccccc2)c1NS(=O)(=O)c1ccccc1
. | 36 | Cn1c(=O)n(CCCOc2ccc(Cl)cc2)c2ccccc21
. | 21 | Cc1ccc(Cn2cnc3cc(C)c(C)cc32)cc1
-1.5 | . | Cc1ccc(CN2CCN(c3cccc4[nH]ccc34)CC2)cc1
0.8 | 2 | Cn1cccc/c1=N/c1cccc[n+]1C
1.9 | -8 | CC1=CCC2(C(=O)OC(C)(C)OC2=O)C(c2ccc(Br)cc2)C1 (stereo not drawn)
. | -20 | Cn1c(SC/C(O)=C(\C#N)c2nc3ccccc3[nH]2)nc2ccccc21
1.6 | 15 | CC1CCCCC1NC(=O)c1cc(-c2cccs2)nc2ccccc12 (stereo not drawn)
1.4 | -2 | N#CC1=C(N)Nc2c(c(=O)oc3ccccc23)C1c1ccc(Br)cc1 (stereo not drawn)
. | 4 | O=C1CN(CC(=O)NC2CCCc3ccccc32)CCN1 (stereo not drawn)
10 | 6 | CCOc1ccc2[nH]c(=O)c(CN(C(=S)NCc3ccco3)C3CCCC3)cc2c1
-1.4 | . | Cc1c(C#N)c(-n2cccc2)n(Cc2cccs2)c1C
2.3 | . | CCOC(=O)C1=C(C)N=c2s/c(=C\c3cc(OC)c(OC)c(OC)c3)c(=O)n2C1c1ccccc1OC (stereo not drawn)
-0.5 | . | CSC1=NCN(C(C)(C)C)CN1
-0.8 | 13 | COc1ccccc1NC(=O)c1cnc(Nc2ccc(C)c(Cl)c2)c2ccccc12
. | -7 | CCOC(=O)c1c(NC(=O)CSc2nnnn2C)sc(C(=O)N(C)C)c1C
-1.4 | -4 | CCOC(=O)COc1cc2c3c(c(=O)oc2cc1C)CCCC3
2.0 | 9 | CC1=NN(c2ccc(C(=O)O)cc2)C(=O)CC1
. | 11 | OCCNC(=S)NC1CC1
. | 14 | COc1ccc(-c2cc(C(F)(F)F)nc(NC3CCCC3)n2)cc1
0.0 | 12 | N#Cc1ccc(C(=O)OC2CCCC2)cc1
-4.5 | 17 | COc1ccccc1CNN
-5.2 | 17 | COC(=O)CCS(=O)(=O)c1ccc(C)cc1
. | -7 | O=C(O)CCC(=O)Nc1ccc(C(=O)OC2CCCCC2)cc1
. | 13 | C=CCNc1nc(-c2cc(C)n(C3CC3)c2C)cs1
-2.1 | . | O=C(CCc1ccc(O)cc1)N/N=C/C=C/c1ccccc1
5.8 | . | Cc1cc(Cl)ccc1Nc1nnns1
4.6 | . | N#Cc1c(N)nc2ccc(Cl)cc2c1-c1ccccc1
-1.5 | 2 | COc1cccc(C(=O)N(Cc2cccnc2)Cc2cc3ccccc3[nH]c2=O)c1
1.4 | 21 | CCC(=O)NC(Cc1ccccc1)c1nc2ccccc2[nH]1 (stereo not drawn)
2.0 | . | O=S(=O)(CCNC1CCCCC1)c1ccc(Cl)cc1

Entries from the list above with bromine, in the order listed:
MgrA DNA FP | S aureus helic | molecule
-0.4 | . | COc1c(Br)cc([N+](=O)[O-])cc1Br
. | -5 | CC1CN/C(=C/C(=O)c2ccc(Br)cc2)C(=O)N1 (stereo not drawn)
1.9 | -8 | CC1=CCC2(C(=O)OC(C)(C)OC2=O)C(c2ccc(Br)cc2)C1 (stereo not drawn)
1.4 | -2 | N#CC1=C(N)Nc2c(c(=O)oc3ccccc23)C1c1ccc(Br)cc1 (stereo not drawn)

Some of the entries so far, in CSV form.
SMILES,MgrA DNA FP,S aureus helic
CC(C)C(=O)Nc1ccccc1-c1nc2ccccc2[nH]c1=O,1.9,-6
CNC(=O)c1ccc2nc(N3CCC(C)CC3)sc2c1,.,5
Cc1onc(-c2c(Cl)cccc2Cl)c1C(=O)NNc1c(Cl)cncc1Cl,2.1,.
c1ccc2c(c1)CCN2c1nn2nnnc2c2ccccc12,.,4
Cc1ccc(S(=O)(=O)NC(=O)N2CCOCC2)cc1,-0.1,.

Further records follow:
MgrA DNA FP | S aureus helic | molecule
-1.5 | 7 | COc1ccc(CNC(=O)c2cccc3c2C(=O)N(c2ccc(OC)cc2)C3)cc1
0.3 | 2 | CN(C(=O)COC(=O)c1ccc(I)cc1)c1ccccc1
-2.5 | . | CCOC(=O)C1CCN(/C=C(\C#N)S(=O)(=O)C(C)(C)C)CC1
-1.2 | 7 | CCn1c(CCNC(=O)c2cccs2)nnc1SCc1ccc(Cl)c(Cl)c1
-1.1 | . | COC(=O)CSc1cc(C(F)(F)F)nc2cc(C(C)(C)C)nn12
4.9 | . | COC(=O)c1ccc(CS(C)(=O)=O)cc1
-0.5 | 2 | COc1ccc(C2CC(=O)c3cnc(Nc4ccccc4OC)nc3C2)cc1 (stereo not drawn)
1.6 | 9 | COCc1cc(=O)[nH]c(Sc2c(-c3ccccc3)c3ccc(Cl)cc3[nH]c2=O)n1
2.1 | . | Cc1ccc(NC(=O)C2COc3ccccc3O2)cc1C (stereo not drawn)
. | -6 | CCCc1cc(=O)[nH]c(SC(C)C(=O)c2ccccc2)n1 (stereo not drawn)
-1.8 | 2 | COC(=O)CSc1nc(-c2ccccc2)cc(C)c1C#N
. | 6 | O=C1CC2(CCCCC2)Oc2ccc(O)cc21
. | 11&6 | CC(C)Sc1nc2c(cnn2-c2ccccc2)c(=O)[nH]1
97* | 10 | c1cc(CNc2ccc(N3CCCC3)cc2)ccn1
0.7 | 1 | O=C(CSc1ccc(-c2ccncc2)nn1)NCC1CCCO1 (stereo not drawn)
0.0 | 14 | COc1ccc(-c2csc(C)n2)cc1OC
. | -3 | Cc1ccc(S(=O)(=O)NCc2cccnc2)s1
. | -6 | O=C(Cn1[nH]c(=O)c2ccccc2c1=O)NCCCSc1ccc(F)cc1
-1.0 | 9 | N#CC1=C(N)N2CCSC2=NC1(C(F)(F)F)C(F)(F)F
3.3 | . | COc1ccc(CCNC(=S)Nc2ccc(C)cc2C)cc1OC
-0.8 | . | O=C(CCc1cccc(Cl)c1)c1cccs1
8.9 | 4 | CCCCCC(=O)N1CCN(CCn2c(CC)c3c(=O)n(-c4nc5ccccc5s4)[nH]c3cc2=O)CC1
. | -24 | Cc1ccc(-c2nc3ccccc3[nH]2)cc1N
0.2 | 13 | CCC(Sc1nc2cc(OC)c(OC)cc2c2nc(C)nn12)C(=O)NCc1ccc(C)cc1 (stereo not drawn)
2.8 | 8 | C=C1C(=O)OCC(C)(C)N1C(=O)OCc1ccccc1
3.1 | . | Cc1cc(C(=O)Nn2c(-c3ccc(Br)cc3)nc3ccccc3c2=O)ccc1[N+](=O)[O-]
0.6 | 8 | Cc1c(Cl)cccc1N1C(=O)CC(N2CCCc3ccccc32)C1=O (stereo not drawn)
0.8 | 15 | CCn1c(=N)c(C#N)cc2c(=O)n3ccccc3nc21
0.7 | -1 | CCOC(=O)c1cc2ccccc2nc1C
. | 9 | CCC(C)NC(=O)C1CCCCN1S(=O)(=O)c1ccc(F)cc1 (stereo not drawn)
2.8 | 6 | Cc1cc(O)ccc1-n1c(=O)c2cc3c(=O)n(-c4ccc(O)cc4C)c(=O)c3cc2c1=O
. | 22 | CSc1nnc(NC(=O)c2ccc(Cl)cc2Cl)s1
1.8 | -16 | O=C(NCc1ccccc1)NCc1noc2ccccc12
. | 15 | O=C(Oc1ccc(Cl)cc1)c1sc2sccc2c1Cl
-0.8 | . | O=S(=O)(c1ccc(-c2cc(C(F)(F)F)ccn2)s1)N1CCCC1
3.9 | 12 | COc1ccc(NC(=O)NCC(C)CSc2ccc(Cl)cc2)c(OC)c1 (stereo not drawn)
. | -2 | COC(=O)Cn1c(=O)cc(N)n(Cc2ccccc2)c1=O
. | -14 | COc1cc(NC(=O)CCNS(=O)(=O)c2cc(Br)cnc2N)cc(OC)c1
. | 29 | CCOc1cc(/C=c2\sc3nc(=O)c(C)nn3c2=O)ccc1OC(C)=O
. | 16 | CN1CCN(C(=O)NCC23CC4CC(C2)CC(CNC(=O)N2CCN(C)CC2)(C4)C3)CC1
-0.8 | 4 | O=C(O)C1C2C=CC(C2)C1C(=O)NCC1CCCO1 (stereo not drawn)
0.6 | -6 | CSc1c(CC(=O)Nc2ccccc2)n(C)c2ccccc12
-1.9 | 3 | CC1(C)CC(NC(=S)NCc2ccco2)CC(C)(C)N1
. | -5 | N#CCn1c(COC(=O)CNC(=O)c2cccs2)nc2ccccc2c1=O
-1.0 | 8 | COc1ccc(-c2nn(-c3ccccc3)cc2C#N)cc1
2.5 | -15 | O=S(=O)(Nc1ccccc1-c1ccccc1)c1cccs1
-4.1 | . | Cn1c(SCc2c(Cl)cccc2Cl)nnc1-c1ccc2ncccc2c1
-2.5 | 2 | CCCn1c(C(O)c2cc(OC)c(OC)c(OC)c2)nc2ccccc21 (stereo not drawn)
1.6 | -7 | O=C(O)c1cc(N2C(=O)C3CC=CCC3C2=O)ccc1NCc1cccnc1 (stereo not drawn)
1.0 | . | C/C(=N\O)c1c(O)c2ccccc2n(C)c1=O

Carrying on:
MgrA DNA FP | S aureus helic | molecule
-0.7 | -2 | CN1CCC(NC(=O)c2cccc(Oc3ccccc3)c2)CC1
-0.7 | . | CC(C/C=N/Nc1ccc([N+](=O)[O-])cc1[N+](=O)[O-])CCc1ccccc1 (stereo not drawn)
. | 2 | Cc1ccc(C)c(C(=O)CCC(=O)Nc2ccc(N3CCN(C)CC3)cc2C)c1
. | 6 | CCOC(=O)c1sc2nc(CN(C)Cc3nc4ccccc4c(=O)[nH]3)[nH]c(=O)c2c1C
4.5 | . | COc1cc(C(=O)Oc2ccc3c(OC)c4ccoc4nc3c2OC)cc(OC)c1OC
. | 5 | C=CCn1ccn(-c2cccc3ccccc23)c(=O)c1=O
-0.7 | 11 | O=C(NCCCN1CCCC1)c1cnn(-c2ccccc2)c1-n1cccc1
. | -5 | CCOC(=O)c1cc(NC(=O)CSCC(=O)O)ccc1N1CCCCC1
-0.2 | . | CC(C)(C)S(=O)(=O)/C(C#N)=C/c1sccc1C1OCCO1
2.2 | . | Cc1cc(C)c(C#N)c(SC(=O)c2c(F)cccc2F)n1
. | 14 | CCCOC(=O)C(C)Oc1ccc2c3c(c(=O)oc2c1)CCC3 (stereo not drawn)
14 | . | O=C1CSCC(=O)N1c1ccc(F)c(Cl)c1
3.2 | 3 | O=C(/C=C(\O)c1ccccc1)C(F)(F)C(F)F
-1.0 | 13 | O=S(=O)(Nc1cc(F)ccc1F)c1ccc(-n2cccn2)cc1
-2.0 | . | C=CCc1c(C)nc(N2CCSCC2)[nH]c1=O
. | 7 | CC1=C(C)C(=O)c2ccccc2C1=O
. | -3 | CC(C)c1ccc(S(=O)(=O)N2CCC(C(=O)Nc3nnc(-c4ccccc4)o3)CC2)cc1
. | 14 | O=C(Nc1cccnc1)c1ccc(COc2ccccc2Cl)o1
. | 13 | NS(=O)(=O)c1cc(C(=O)Nc2ccccc2N2CCOCC2)ccc1Cl
1.4 | -8 | COc1ccc(C2SCC(=O)N2CCCN(C)C)cc1OC (stereo not drawn)
. | -11 | Cn1cc(SCC(=O)Nc2nccs2)c2ccccc21
1.9 | 7 | CC(C)n1nnc2c(=O)oc3ccccc3c21
4.0 | . | CSc1nc(NC(=O)NS(=O)(=O)c2ccccc2C(F)(F)F)nc(-c2ccccn2)n1
. | -10 | CC(C)CC(NS(C)(=O)=O)C(=O)O (stereo not drawn)
. | -5 | CN(C)S(=O)(=O)c1ccc(Cl)c(C(=O)OCC(N)=O)c1

MgrA DNA FP: hit marks shown above
MgrA DNA FP | S aureus helic | molecule
97* | 10 | c1cc(CNc2ccc(N3CCCC3)cc2)ccn1

(cont.)
MgrA DNA FP | S aureus helic | molecule
. | -7 | O=C(CSc1nc(-c2ccccc2)cc(=O)[nH]1)NC1CCCC1
. | -28 | CCCC(=O)NCc1cn2cccc(C)c2n1
0.3 | 0 | O=C(c1cccc(S(=O)(=O)NC2CCCCCC2)c1)N1CCCc2ccccc21
. | 24 | COc1cc(C2C(C#N)=C(SCC(N)=O)NC3=C2C(=O)CCC3)ccc1O (stereo not drawn)
. | 3 | CCC(Sc1nc2ncccc2o1)C(=O)Nc1ccc(OC)c(Cl)c1 (stereo not drawn)
1.0 | . | S=c1nc2sccn2c2ncccc12

Bioassay records: PubChem, ICCB-Longwood Screening Facility, Harvard Medical School

These rows are one share of the data, so the mix of outcomes need not match the whole.
